Screening results from PubChem.
HPGD block: blocks human HPGD enzyme activity; AID 894; P15428; Potency, µM, for the others: at the top dose activity change, negative = inhibition, actives largely listed as inhibitors; purified HPGD, NADH fluorescence kinetic, PGE2 substrate; 150,000 compounds, 4.3% hits; active = well fitted inhibition curve with a large enough effect (not every such curve was filed as active); inconclusive = small, poorly fitted or top-dose-only effect, or another doubt; inactive = no such curve, though single readings can be large or run the other way;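 further: top concentration of the series not given in the record; plate controls included wells without enzyme; inactives centre near -10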
Target sequence (P15428 whole entry, looked up): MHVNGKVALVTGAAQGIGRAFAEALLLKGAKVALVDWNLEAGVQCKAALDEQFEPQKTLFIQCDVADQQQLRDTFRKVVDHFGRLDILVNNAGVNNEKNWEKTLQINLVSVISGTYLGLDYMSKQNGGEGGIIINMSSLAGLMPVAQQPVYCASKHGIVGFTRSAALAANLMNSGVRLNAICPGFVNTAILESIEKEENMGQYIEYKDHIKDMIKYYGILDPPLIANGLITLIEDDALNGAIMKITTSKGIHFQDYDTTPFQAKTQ
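NADH formation kinetics: reaction with 30 uM PGE2 and 1 mM NAD+ (final), 20 nM enzyme, Tris-HCl pH 8 with Tween 20, after 15 min compound preincubation at room temperature. Fluorescence change, last versus first of five reads.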
The depositor's hits bear a star; ? = inconclusive; & = joins results of further samples. On the % scale 0 is the no-effect control and ±100 the full control effect; potency means the concentration at half of the fitted maximal effect. This is a subset; rates above refer to the full screens.

canonical_smiles,HPGD block
C/C(CCN1CCc2nc(-c3ccccc3)c(-c3ccccc3)cc2C1)=N\O[C@H](C)c1cn([C@H](CO)Cc2ccccc2)nn1,-6%
Brc1c(CSc2nncn2-c2ccccc2)nc2ncccn12,?
Cc1ccccc1C(=O)NCc1nnc(SCC(=O)N2CCN(c3ccccc3)CC2)n1C,0%
COc1cccc(Cn2c(=O)c(CCc3ccccc3)nc3cnc(OC)nc32)c1,-17%
CCCCC(C)(C)[C@H](O)/C=C/[C@H]1[C@H](O)CC(=O)[C@@H]1C/C=C\CCCC(=O)O,-4%
CC1(C)COCN1COC1CCCCC1,-6%
CCN(CC)CCOC(=O)c1cccc(Cl)c1,0%
O=C(COC(=O)c1ccc(Br)c(S(=O)(=O)N2CCOCC2)c1)NCC1CCCO1 (stereo not given),-8%
O=C(O)/C=C/c1ccc2c(-c3ccccc3)onc2c1,-30%
CCc1c(O)nc(SCC(=O)Nc2ccc(C)cc2)n(C2CCCCC2)c1=O,-12%
CC(C)(C)NS(=O)(=O)c1ccc(CCC(=O)N2CCCCC2)cc1,-14%
O=C(CSc1nc2ccccc2o1)NC(=O)NCc1ccccc1,-10%
CN(CCNC(=O)c1ccc(/C=N/O)nc1)Cc1ccccc1,-4%
C=C(C)Cn1c(=O)c2c(nc3n2CCN3c2cccc(Cl)c2C)n(C)c1=O,-12%
OC(COCCC12CC3CC(CC(C3)C1)C2)CN1CCCCC1 (stereo not given),-10%
COc1ccccc1NS(=O)(=O)c1cc(NC(=O)CNC(=O)c2ccccc2)ccc1C,-13%
O=C(Nc1ccc([N+](=O)[O-])cn1)C1CCCCC1,-5%
Cc1csc(C(=O)O)c1-c1c(C)csc1C(=O)O,-3%
Cc1cccc(NCC(O)Cn2cnc3c2c(=O)n(C)c(=O)n3C)c1 (stereo not given),-8%
COc1cc(/C=C\C(=O)N2CCC=CC2=O)cc(OC)c1OC,-5%
Cc1cccc(NC(=O)c2onc3c2CCCC3)n1,-17%
CC(=O)Nc1ccc(S(=O)(=O)N(C)CCOCc2ccccc2)cc1,-7%
O=C(CSCc1ccccc1)N1CCN(Cc2ccc3c(c2)OCO3)CC1,-8%
Cc1cc(N)c(-n2cc3c(=O)n(C)c(=O)n(C)c3c2)cc1C,-15%
COc1ccc(Cn2nnnc2C(C(C)C)N2CCN(c3ccccc3OC)CC2)cc1 (stereo not given),-8%
C#C[C@]1(O)CC[C@H]2[C@@H]3CCc4cc(OC)ccc4[C@H]3CC[C@@]21C,1%
COCc1cc(C)nc(Nc2cc(C)ccc2C)c1C#N,-16%
Cc1cc(C)c(NC(=O)CS(=O)CC(=O)NC2CCCc3ccccc32)c(C)c1 (stereo not given),0%
CCCC(=O)Nc1ccc(C(=O)N/N=C/c2ccc([N+](=O)[O-])o2)cc1,-20%
CCOC(=O)c1cnc(N2CCOCC2)[nH]c1=O,-9%
COc1ccc(NC(=O)CNS(=O)(=O)c2ccc(Cl)cc2)cc1OC,-2%
O=C1CC(Nc2ccccc2)C(=O)N1Cc1ccccc1 (stereo not given),1%
CC(=O)Nc1sc2c(c1C(c1ccccc1)N1CCOCC1)CCCC2 (stereo not given),-9%
COc1ccc(N(CC(O)Cn2nnc3ccccc32)S(=O)(=O)c2ccc(C)cc2)cc1 (stereo not given),-8%
COc1cccc(N2CCN(CC(=O)Nc3nnc(-c4ccccc4)s3)CC2)c1,-18%
N#C/C(C(=O)N1CCOCC1)=C1/SC(Cc2ccccc2Cl)C(=O)N1c1ccccc1 (stereo not given),0%
COc1cccc(CC(NC(C)=O)C(=O)NC2CCN(c3nnnn3-c3ccccc3)CC2)c1 (stereo not given),-6%
CCCCCC[n+]1c(-c2ccc(Cl)cc2Cl)csc1Nc1ccccc1,0%
Cc1cc2nsnc2c(S(=O)(=O)NCC(=O)O)c1C,-12%
Cn1cccc1C(=O)N1CCC2(CC1)CCN(c1cccc(-c3ccccc3)c1)CC2,?

At a glance, five of the compounds above.
canonical_smiles,HPGD block
Cc1cccc(NC(=O)c2onc3c2CCCC3)n1,-17%
CC(=O)Nc1ccc(S(=O)(=O)N(C)CCOCc2ccccc2)cc1,-7%
O=C(CSCc1ccccc1)N1CCN(Cc2ccc3c(c2)OCO3)CC1,-8%
Cc1cc(N)c(-n2cc3c(=O)n(C)c(=O)n(C)c3c2)cc1C,-15%
COc1ccc(Cn2nnnc2C(C(C)C)N2CCN(c3ccccc3OC)CC2)cc1 (stereo not given),-8%

Among those listed so far, 2 have a thiophene ring, fused or not:
canonical_smiles,HPGD block
Cc1csc(C(=O)O)c1-c1c(C)csc1C(=O)O,-3%
CC(=O)Nc1sc2c(c1C(c1ccccc1)N1CCOCC1)CCCC2 (stereo not given),-9%

Further records:
canonical_smiles,HPGD block
COc1cccc(-c2nnc3sc(-c4ccco4)nn23)c1,?
CCOc1ccc(OCC)c(NC(=O)C2CCCN2S(=O)(=O)c2cccc3cccnc23)c1 (stereo not given),-2%
CCN(CC)c1ccc(/C=N/NC(=O)c2ccc(Br)o2)cc1,-22%
C=CCn1c(SCc2ccc(C(=O)Nc3nccs3)cc2)nnc1-c1ccc(C)c(Cl)c1,?
CCOc1ccccc1-n1nnnc1SCC(=O)Nc1cc(C)on1,3%
CC(C)(C)C1=C(C#N)C(c2ccc3c(c2)OCO3)C(C#N)=C(N)O1 (stereo not given),?
CCn1c2ccccc2c2nnc(SCc3ccc(C(=O)OC)o3)nc21,?
Cn1cnnc1SCc1ccc(C(=O)N=Nc2c(O)n(C)c3ccccc23)cc1,-11%
CCN(CC(=O)Nc1ccc(NC(C)=O)cc1)C(=O)C(c1ccccc1)c1ccccc1,-14%
CN=C1SC(CC(=O)Nc2ccc(N3CCOCC3)cc2)C(=O)N1C (stereo not given),-15%
O=C(CCC(=O)c1cccs1)Nc1ccc(F)c(F)c1F,-16%
COc1cc(NC(=O)c2ccc(COCC(F)(F)F)o2)cc(OC)c1OC,-5%
CC(NC(=O)c1cn(C)c2ccc(S(=O)(=O)N3CCCC3)cc2c1=O)c1ccc2c(c1)OCCO2 (stereo not given),-8%
Cc1nnc(NC2=NCCC2)o1,-4%
Cc1cc(C(=O)CSc2nc(N)cc(=O)[nH]2)c(C)n1CCc1ccc(F)cc1,-6%
COc1ncnc2c1cnn2-c1ccccc1,-27%
CCCc1nnc(SCC(=O)Nc2ccc(OCC)cc2)n1N,-6%
Cc1cccc2cc(COC(=O)c3cccs3)c(=O)[nH]c12,-14%
CCOC(=O)C1CCN(CC(=O)Nc2c(C(=O)OC)[nH]c3ccc(Cl)cc23)CC1,?
COc1cccc(-c2ccc(=O)n(CC(=O)NCCN3CCOCC3)n2)c1,-7%
CCOC(=O)c1ccc(NC(=S)N2CCN(Cc3ccccc3)CC2)cc1,3%
Cc1ccc(C)c2c1cc(C)c1nnc(SCC(=O)NCc3ccc4c(c3)OCO4)n12,-5%
Cc1c(NC(=S)N/N=C/c2ccc(O)cc2)c(=O)n(-c2ccccc2)n1C,?
O=C(O)c1ccc(NS(=O)(=O)c2cccc3ccccc23)cc1,3%
CCc1sc(C(=O)Nc2ccc(NC(C)=O)cc2)cc1C,?
O=C(CCCCCNc1nc(=S)[nH]c2ccccc12)NCCc1ccccc1,?
Cc1c(C(=O)N2CCN(C)CC2)oc2ccc(S(=O)(=O)N3CCOCC3)cc12,-13%
CC(=O)N1C(C(=O)O)CSC1c1ccc(C)cc1 (stereo not given),-7%
C#CC[N+](CC)(CC)CC#Cc1cccc(Cl)c1,-5%
COc1cccc(/C=N/NC(=O)CC2C(=O)NN=C2C)c1O (stereo not given),-15%
O=C(Nc1nnc(-c2ccccc2Cl)o1)c1cc2cc([N+](=O)[O-])ccc2s1,-8%
CCOC(=O)N1CCC(NC(=O)C2CCN(C(=O)N3CC(C)Oc4ccccc43)CC2)CC1 (stereo not given),-8%
Cc1cc(C(c2ccc(C)o2)c2ccc(C)o2)c(O)c([N+](=O)[O-])c1,-16%
O=C(NCCCN1CCCC1=O)c1cccc(N2CCCC2=O)c1,3%
COc1ccccc1N=C(C)C1=C(O)CSC1=O,-18%
Cc1cccc2c1CC(C)(C)NC2=C(C#N)C#N,-5%
Cn1cccc1CC(=O)NNC(=O)Nc1cccc(Cl)c1,-1%
O=C(C1=C[C@@H]2[C@H]3C(=O)N(c4cccc(Cl)c4)C(=O)[C@H]3[C@@H](C(=O)c3ccc(Cl)cc3)N2C=C1)c1ccccc1,-30%
Cc1nc(C)n(C(=O)N(c2ccccc2)c2ccccc2)n1,-3%
Cc1cc(NC(=O)CCC(=O)N(c2cccnc2)C(C(=O)NC2CCCC2)c2ccccc2)no1 (stereo not given),-4%
S=C(NCCc1ccccc1)NCc1ccccc1Cl,-19%
COc1ccccc1N1CCN(C(CNC(=O)c2ccco2)c2cccnc2)CC1 (stereo not given),-4%
COc1ccc(CCNC(=O)COC(=O)c2cnc(C)cn2)cc1,-6%
CCCOc1ccccc1C1C(C(=O)OC)=CN(C(C)C)C=C1C(=O)OC,?
COc1ccc(N2C(=O)C3CCCN3C2c2cc(OC)c(OC)cc2OC)cc1 (stereo not given),-10%
Cc1cc(C)n(-c2nc3c(c(=O)[nH]c(=O)n3C)n2CC(O)COc2ccccc2)n1 (stereo not given),-6%
O=CNCCCc1nc2ccccc2n1Cc1ccccc1,-6%
O=C(CSc1nc(-c2ccccc2)c(-c2ccccc2)[nH]1)N1CCN(S(=O)(=O)c2ccccc2)CC1,?
CCc1ccc2[nH]c(=O)c(C(c3nnnn3CC3CCCO3)N3CCN4CCCC4C3)cc2c1 (stereo not given),-18%
CC(C)c1nnc(NC(=O)CCC(=O)N2CCN(Cc3ccccc3)CC2)s1,-1%
Cc1ccc(C(=O)C(OC(=O)CN2C(=O)c3ccccc3C2=O)c2ccccc2)cc1 (stereo not given),-13%
O=C(NCc1ccc2c(c1)OCO2)c1ccc(S(=O)(=O)N2CCCCC2)cc1,?
CCC(=O)Nc1c(-c2ccc(OC)cc2)c(=O)c2ccccc2n1C,?
COC(=O)/C=C/C(C)=C/C=C/C(C)=C/C=C/C=C(C)/C=C/C=C(C)/C=C/C(=O)O,-12%
Cc1[nH]c2ccccc2c1SCC(=O)N1CCCc2ccccc21,-4%
N#Cc1cnc(Nc2nc3ccccc3o2)nc1-c1ccccc1,-25%
COc1ccc(-c2n[nH]c(C)c2-c2cnn(-c3ccccc3)c2)c(O)c1C,-12%
COC(=O)C(C(=O)Nc1ncccn1)C1CCCCCC1 (stereo not given),1%
O=C(NCCc1c[nH]c2ccccc12)C(=O)NCC1OCCCN1S(=O)(=O)c1ccccc1 (stereo not given),-9%
CC(C)(C)c1ccc(C(=O)NNC(=O)c2cccc(Br)c2)cc1,-3%

More compounds follow:
canonical_smiles,HPGD block
Cc1ccc(Cn2nc(C)c(NC(=O)c3nn(C)cc3Cl)c2C)cc1,-10%
CCOC(=O)N1CCN(C(=O)C2CCCN(S(=O)(=O)c3cccnc3)C2)CC1 (stereo not given),-5%
COc1ccc(/C=N/NC(=O)c2cccc([N+](=O)[O-])c2)cc1OC(=O)c1ccccc1,?
CC(=O)Nc1ccc(/C=C(\C#N)C(=O)NCc2ccccc2)cc1,?
CC(Oc1ccc(Cl)cc1Cl)C(=O)NCCC1=CCCCC1 (stereo not given),-20%
CC(=O)Oc1c(C)cc(Cl)cc1C(=O)Nc1ccc([N+](=O)[O-])cc1Cl,-3%
O=C(NCCCN1CCCC1=O)c1cncc(Br)c1,-12%
Cc1cccc(CN2CCN(c3ccccn3)CC2)c1,-2%
COCCOc1ccc(C(F)(F)F)cc1NC(=O)c1ccc(C)cc1,?
Cc1nc(NS(=O)(=O)c2ccccc2)sc1C(C)(C)C,-10%
O=C(NCCCc1ccccc1)c1ccccc1O,?
C/C(Cn1nc([N+](=O)[O-])cc1C)=N\NC(=O)COc1c(Cl)cc(Cl)cc1Cl,-5%
O=C(/C=C/c1ccc(O)c(O)c1)OC1C[C@](O)(C(=O)O)C[C@@H](O)[C@H]1O (stereo not given in full),-12%&2%
O=C(O)c1ccc(-n2ccnc2)c([N+](=O)[O-])c1,-12%
C/C(=N\NC(=O)C1CC1)c1ccc(Cl)c(Cl)c1,3%
CCCCN(CC)Cc1c(C)[nH]c2ccccc2c1=O,1%
O=C(c1ccc(N2CCCCS2(=O)=O)cc1)N1CCN(c2ccc(N3CCOCC3)nn2)CC1,?
CC(=O)O[C@@H]1C[C@H]2C(C)(C)C(=O)C=C[C@]2(C)[C@H]2CC[C@@]3(C)[C@H](c4ccoc4)OC(=O)[C@H]4O[C@]43[C@@]21C,-2%
CCOC(=O)N1CCc2c(sc(NC(=O)c3ccc(Cl)s3)c2C(N)=O)C1,32µM*
COc1cccc(-c2ccc(SCC(=O)N3CCc4ccccc43)nn2)c1,-22%
O=c1[nH]c2ccccc2n1Cc1ccc(Cl)cc1,-3%
CCOc1ccc2nc(SCC(=O)Nc3ccc4c(c3)OCO4)sc2c1,-11%

Shown field by field: entries from further up
molecule: CC(=O)Nc1ccc(S(=O)(=O)N(C)CCOCc2ccccc2)cc1
  HPGD block: -7%

molecule: COc1cc(NC(=O)c2ccc(COCC(F)(F)F)o2)cc(OC)c1OC
  HPGD block: -5%

molecule: Cn1cccc1C(=O)N1CCC2(CC1)CCN(c1cccc(-c3ccccc3)c1)CC2
  HPGD block: ?
